Autofluor counter: compound fluorescence in toxin protease inhibitor counterscreen; compound autofluorescence counterscreen, microsphere flow cytometry; stronger effect = higher value; fluorescence intensity (concentration not given with the values); 360,000 tested, 3.1% active; AID 624483;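 active = at least 3 SD above the mean of all compounds, about 16000 in these data; inconclusive = too few beads counted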;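 also: 100 nL of 1 mM stock went into each well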
RN4220 kill: growth inhibition of S. aureus RN4220, primary screen, OD600; 16 h; inhibition, % (concentration not given with the values); 330,000 tested, 0.33% active;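 active = z-score of -3 or lower and OD600 up to 0.18 on both plates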;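 also: plate controls were untreated cells for no effect and reference antibiotic for full effect; stock transfer was 100 nL into about 80 µL; one replicate is shown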
PrP 5UTR inh: inhibition of PrP 5' UTR reporter expression; cell-based PrP 5' UTR mRNA reporter, plate reader; inhibition, % (concentration not given with the values); 340,000 tested, 0.35% active; AID 488862, 2010;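 active = every replicate at 50% or more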;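 also: 0 = median of the neutral control wells; tested in H4 reporter cells; numbers are from one replicate; inactives centre near -14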
ugtP null kill: growth inhibition of ugtP-null S. aureus, primary screen, RN4220 ugtP deletion, OD600. 16 h; some inactives read as strong as hits. growth inhibition, % (test concentration not listed). 330,000 tested, 0.54% active. AID 1259309, 2017;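 active = z-score under -3 and OD600 up to 0.15 on both plates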;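 also: plate controls were untreated wells for no effect and antibiotic for full effect; wells of about 80 µL received 100 nL stock; the first replicate is given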
BJeLR lethal: MLPCN primary cell-based screen for lethality selective to Ras in HRASV12 cells; BJeLR (HRASV12) viability, CellTiter-Glo ATP luminescence, 48 h; reference of the scale not given here; inhibition, % (concentration not given with the values); 300,000 tested, 0.17% active; AID 1554, 2009;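 active = replicate mean above 50%; inconclusive = above 50% but judged a plate artefact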;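 also: 50 nL library stock added to about 25 µL; numbers are from one replicate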
Mtb hypoxia rep: PubChem AID 1159583; M. tuberculosis hypoxia-regulated fluorescent reporter, fluorescence; fluorescence inhibition, % (test concentration not listed); 300,000 tested, 0.1% active;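 active = 35 to 45% if threefold the growth effect, above 45% if 1.5-fold the growth effect; inactive = the rest, general growth blockers included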;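 also: wells of about 50 µL received 100 nL stock; 0% = vehicle wells and 100% = reference inhibitor wells; whole bacteria with a GFP reporter of the hypoxia response; strong numbers were not always called active; many hits fall short of the cut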
Mtb hypoxia rep growth: further read-out of Mtb hypoxia rep, marked with its call; growth inhibition, %; measured here: M. tuberculosis growth (absorbance);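 0% = vehicle and 100% = reference antibiotic; read after six days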
* hit, by the source's call; ? = inconclusive; . = no result given.

cpd | Molecule | BJeLR lethal | RN4220 kill | Mtb hypoxia rep growth | Autofluor counter | Mtb hypoxia rep | ugtP null kill | PrP 5UTR inh
1 | O=C(c1ccco1)N(Cc1cc2ccccc2[nH]c1=O)CC1CCCO1 (stereo unspecified) | -7 | -2.6 | 9 | 3089 | 4 | -6 | -22
2 | CC(N)Cc1c[nH]c2ccc(Cl)cc12 (stereo unspecified) | 0 | -4.1 | 11 | 4241 | -3 | -8 | -26
3 | CCCc1nc2ccccc2c(C(=O)OCC(=O)c2ccc3c(c2)NC(=O)CO3)c1CC | 4 | 3.4 | 6 | 10659 | 17 | -2 | -21
4 | COc1cc([N+](=O)[O-])ccc1NC(=O)Nc1ccc2c(c1)OCCO2 | 0 | -0.6 | 1 | 3355 | 0 | 5 | -47
5 | O=C(CSc1nccc(=O)[nH]1)N1CCN(c2ccccc2)CC1 | 3 | -0.4 | 7 | 3331 | -3 | 7 | -6
6 | Cc1cc(C)c2[nH]c(C(=O)N3CCC(n4nccc4NC(=O)C4CC4)CC3)c(C)c2c1 | 7 | 6.2 | 5 | 6260 | 4 | 5 | -11
7 | CCOc1ccc(NC(=O)N[C@@H](Cc2ccccc2)C(=O)O)cc1 | -7 | 4.3 | 4 | 4992 | 8 | -5 | -12
8 | COc1ccc(OC)c2c1CC(C)(C)NC2=O | 5 | 3.3 | . | 5803 | . | 3 | -20
9 | CC(NS(=O)(=O)c1ccc(CCC(=O)NCc2ccco2)cc1)c1ccccc1 (stereo unspecified) | 7 | 4.4 | 9 | 7816 | 7 | 3 | -21
10 | O=C(COC(=O)c1cc(S(=O)(=O)N2CCOCC2)ccc1Cl)Nc1ccc2c(c1)OCO2 | -5 | 4.5 | . | 3968 | . | -1 | -26
11 | O=C(COCc1cc(-c2ccco2)on1)NC1CCCCC1 | 4 | 5.1 | 3 | 5109 | 5 | 3 | 4
12 | CC(c1ccccc1)N(CC(=O)NC1CCCCC1)S(=O)(=O)c1cccc(C(F)(F)F)c1 (stereo unspecified) | 2 | 6.2 | 0 | 11084 | 6 | 2 | -27
13 | Cc1ccnc(NCc2cccc3ccccc23)c1 | -11 | 7.0 | 5 | 3487 | 0 | 4 | -13
14 | CCn1cc(C2=NOC(C(=O)Nc3ccccc3C(=O)OC)C2)c(C)n1 (stereo unspecified) | -10 | 4.2 | 4 | 8119 | 1 | 0 | -10
15 | Cc1ccc(C(=O)OC(C)C(=O)NC2CCCCC2)cc1S(=O)(=O)N1CCCCC1 (stereo unspecified) | . | 0.6 | 8 | 8911 | -2 | -4 | -8
16 | C1CCC2CCCCC2C1 (stereo unspecified) | . | 3.0 | 11 | 5198 | 3 | 0 | -3
17 | Cn1cc(C(=O)c2cccc(Cl)c2)cc1C#N | 1 | 7.1 | 5 | 3569 | 3 | 3 | -9
18 | Cc1ccc(C(C)NC(=S)NCc2ccc(F)cc2)cc1C (stereo unspecified) | 9 | -6.2 | 2 | 6282 | -1 | -1 | -18
19 | CN(C)C(CNC(=O)c1cc(-c2ccco2)nc2ccccc12)c1ccccc1 (stereo unspecified) | . | 5.0 | 9 | 4388 | 7 | 2 | -18
20 | O=C(Nc1ccc(F)cc1F)c1cc2nc3c(c(C(F)(F)F)n2n1)CCCC3 | -9 | 4.4 | 2 | 9513 | -2 | 8 | 11
21 | COCCNc1ccc(-c2n[nH]c(=O)c3ccccc23)cc1[N+](=O)[O-] | 4 | 0.6 | -1 | 3659 | -18 | 4 | 0
22 | CC(C)c1c(O)nc(SCCOc2ccc(Cl)cc2)[nH]c1=O | 11 | 9.2 | 1 | 4458 | 11 | 1 | -4
23 | COc1ccc(/C=C(\C#N)C(=O)c2cccn2C)cc1 | 2 | 2.7 | -2 | 3921 | 4 | 5 | -15
24 | O=S(=O)(Nc1cc(S(=O)(=O)N2CCOCC2)ccc1N1CCOCC1)c1ccc2c(c1)OCCO2 | 4 | 8.7 | 4 | 5168 | 10 | 0 | -30
25 | O=C(CCCN1C(=O)S/C(=C\c2ccccc2)C1=O)NNC(=O)c1ccccc1O | -6 | . | . | 4801 | . | . | 50
26 | CCN1CCN(c2ncnc3c2cnn3-c2ccccc2)CC1 | -6 | 3.9 | 8 | 4272 | 21 | 9 | -29
27 | CN(C)c1ccc(N/C=C/C(=O)c2ccco2)cc1 | 2 | 6.9 | 15 | 3743 | 14 | -10 | -23
28 | CC(=O)Nc1cccc(-c2nn[nH]n2)c1 | -7 | 1.2 | 7 | 4789 | 6 | 0 | -24
29 | O=C(NNC(=S)Nc1ccc(Cl)cc1Cl)c1ccncc1 | 15 | 2.6 | 5 | 2120 | 11 | 1 | -22
30 | CC(C)COCC(O)CC(Cc1ccccc1)C(=O)NN (stereo unspecified) | -3 | 2.5 | -5 | 4330 | -5 | 3 | -3
31 | O=C(Cc1ccc(S(=O)(=O)N2CCOCC2)s1)Nc1ccccc1N1CCOCC1 | 10 | 2.8 | 5 | 4976 | 3 | 7 | -14
32 | CC(=O)c1ccc(S(=O)(=O)NC2CCSc3ccccc32)cc1 (stereo unspecified) | -4 | 0.3 | -2 | 3722 | -6 | 1 | -25
33 | O=[N+]([O-])c1cc(S(=O)(=O)N2CCOCC2)ccc1N1CCNCC1 | . | 4.1 | -5 | ? | 0 | 6 | -17
34 | CCCCC(c1nnnn1CS(=O)(=O)c1ccc(C)cc1)N1CCN(C)CC1 (stereo unspecified) | 0 | 4.8 | 4 | 4419 | 0 | -4 | -34
35 | O=C(Nc1nccs1)c1ccc(COc2ccc(F)cc2)o1 | 5 | -2.1 | 5 | 7540 | 4 | -14 | .
36 | Nn1c(SCC(=O)NC2CCCCCC2)nnc1C(F)(F)F | . | 2.7 | 6 | 2935 | 8 | 9 | -18
37 | CCOC(=O)c1c(C)[nH]c(C)c1C(=O)COC(=O)c1cccc(S(=O)(=O)N(CC)CC)c1 | -6 | -6.2 | 7 | 3602 | 1 | -8 | -7
38 | Cc1cc(NC(=O)Nc2ccc(Cl)cc2)n(-c2ccccc2)n1 | 12 | 1.4 | -4 | 5824 | -9 | 3 | -40
39 | COCc1c(Br)c(C)nc(OCC(=O)NN=Cc2ccco2)c1C#N | . | 1.9 | -10 | . | 3 | 1 | .
40 | COc1ccc(CNC(=O)COC(=O)CCOc2ccc(C)cc2)cc1 | -11 | -2.5 | 5 | 5896 | 4 | 11 | -12
41 | CCCCNC(=O)c1ccc2c(=O)n(CCCOCC)c(=S)[nH]c2c1 | 2 | 0.4 | 1 | ? | -2 | -5 | 0
42 | CCn1nc(C)c(CNC(=O)CCc2nnc(-c3ccc(C(C)=O)s3)o2)c1C | 5 | -2.4 | 6 | 4080 | 6 | 11 | -12
43 | Cc1cc2oc(=O)cc(CN(C)Cc3ccccc3Cl)c2cc1C | -12 | 4.1 | -6 | 3445 | -2 | 6 | -25
44 | Cc1cc(C(F)(F)F)nc(CCNCc2c(C(=O)N3CCCC3)nc3ccccn23)n1 | 14 | 5.5 | 3 | 5269 | 7 | 11 | -29
45 | Cc1cc(C)cc(N(C(=O)c2csnn2)C(C(=O)NC2CCCC2)c2cccnc2)c1 (stereo unspecified) | 8 | -1.2 | -9 | 3513 | 2 | 8 | -24
46 | N#CCc1nc2n(n1)Cc1ccccc1-2 | -2 | 2.7 | -7 | 7016 | 8 | 16 | -3
47 | Cc1ccccc1OCC(=O)NN=Cc1cccc2cccnc12 | . | 4.6 | 1 | . | 4 | 9 | .
48 | Cc1cc(C)c(C(=O)C(C)OC(=O)Cn2cnc3c2c(=O)n(C)c(=O)n3C)cc1C (stereo unspecified) | -6 | -0.6 | 4 | 6118 | -5 | 4 | -8
49 | CCC(Sc1nc(C)cc(C)n1)C(=O)Nc1cc(C)on1 (stereo unspecified) | -19 | 0.8 | -29 | 3511 | -4 | 4 | -16
50 | CC1=NN(c2ccccc2)C(=O)/C1=C\c1sccc1C | 1 | 0.6 | 2 | 4720 | 3 | 0 | -20

Remaining list, next part.
cpd | Molecule | BJeLR lethal | RN4220 kill | Mtb hypoxia rep growth | Autofluor counter | Mtb hypoxia rep | ugtP null kill | PrP 5UTR inh
51 | CCN(CC)c1ccc(C(=O)N/N=C/c2ccc(N3CCOCC3)cc2)cc1 | 6 | . | . | 2105 | . | . | -20
52 | CC1CC(C)(C)N2C(=O)C(=C(C#N)C#N)c3cccc1c32 (stereo unspecified) | 5 | 30 | 10 | 3532 | 13 | 15 | -18
53 | Cc1ccccc1CSc1nnc(-c2ccccc2)c(=O)[nH]1 | 3 | 12 | 2 | 2089 | 12 | -6 | 1
54 | O=C(COc1nsnc1N1CCOCC1)N1CCOCC1 | . | 1.0 | 7 | 6295 | 4 | -14 | -23
55 | CCOc1ccccc1CN1CCNC(=O)C1CC(=O)N(C)Cc1cnccn1 (stereo unspecified) | 4 | . | . | 6007 | . | . | -9
56 | COc1ccc(CCNC(=O)c2cc(-c3ccncc3)nc3c(Cl)cccc23)cc1OC | -3 | -4.6 | 13 | 3919 | -4 | -4 | -14
57 | Cc1cc(=O)oc2cc(OC(C)C(=O)NC3CCN(Cc4ccccc4)CC3)ccc12 (stereo unspecified) | 4 | -4.6 | 4 | 5576 | 7 | -5 | 1
58 | CCC(Oc1ccccc1)C(=O)OCC(=O)N(CC)c1c(N)n(Cc2ccccc2)c(=O)[nH]c1=O (stereo unspecified) | -4 | -2.6 | 4 | 6560 | 2 | 8 | -10
59 | CCC(=O)Nc1nnc(SCC(=O)Nc2ccc(F)cc2)s1 | 1 | 6.5 | 6 | 9489 | 11 | 5 | 19
60 | CC(C)CNC(=O)CN(c1cccc(Cl)c1)S(C)(=O)=O | -7 | 5.8 | 7 | 2520 | 13 | 7 | -9

Eleven structures from above, ordered by SMILES length, smallest number first.
cpd | Molecule | BJeLR lethal | RN4220 kill | Mtb hypoxia rep growth | Autofluor counter | Mtb hypoxia rep | ugtP null kill | PrP 5UTR inh
29 | O=C(NNC(=S)Nc1ccc(Cl)cc1Cl)c1ccncc1 | 15 | 2.6 | 5 | 2120 | 11 | 1 | -22
43 | Cc1cc2oc(=O)cc(CN(C)Cc3ccccc3Cl)c2cc1C | -12 | 4.1 | -6 | 3445 | -2 | 6 | -25
22 | CC(C)c1c(O)nc(SCCOc2ccc(Cl)cc2)[nH]c1=O | 11 | 9.2 | 1 | 4458 | 11 | 1 | -4
32 | CC(=O)c1ccc(S(=O)(=O)NC2CCSc3ccccc32)cc1 (stereo unspecified) | -4 | 0.3 | -2 | 3722 | -6 | 1 | -25
34 | CCCCC(c1nnnn1CS(=O)(=O)c1ccc(C)cc1)N1CCN(C)CC1 (stereo unspecified) | 0 | 4.8 | 4 | 4419 | 0 | -4 | -34
21 | COCCNc1ccc(-c2n[nH]c(=O)c3ccccc23)cc1[N+](=O)[O-] | 4 | 0.6 | -1 | 3659 | -18 | 4 | 0
25 | O=C(CCCN1C(=O)S/C(=C\c2ccccc2)C1=O)NNC(=O)c1ccccc1O | -6 | . | . | 4801 | . | . | 50
44 | Cc1cc(C(F)(F)F)nc(CCNCc2c(C(=O)N3CCCC3)nc3ccccn23)n1 | 14 | 5.5 | 3 | 5269 | 7 | 11 | -29
48 | Cc1cc(C)c(C(=O)C(C)OC(=O)Cn2cnc3c2c(=O)n(C)c(=O)n3C)cc1C (stereo unspecified) | -6 | -0.6 | 4 | 6118 | -5 | 4 | -8
10 | O=C(COC(=O)c1cc(S(=O)(=O)N2CCOCC2)ccc1Cl)Nc1ccc2c(c1)OCO2 | -5 | 4.5 | . | 3968 | . | -1 | -26
37 | CCOC(=O)c1c(C)[nH]c(C)c1C(=O)COC(=O)c1cccc(S(=O)(=O)N(CC)CC)c1 | -6 | -6.2 | 7 | 3602 | 1 | -8 | -7

Next part
cpd | Molecule | BJeLR lethal | RN4220 kill | Mtb hypoxia rep growth | Autofluor counter | Mtb hypoxia rep | ugtP null kill | PrP 5UTR inh
61 | O=C(c1cc2ccccc2oc1=O)N(c1ccc(Cl)cc1)C1C=CS(=O)(=O)C1 (stereo unspecified) | -10 | . | . | 2434 | . | . | -96
62 | COc1ccc(CCNC(=O)C(=O)c2cn(CC(=O)N3CCOCC3)c3ccccc23)cc1OC | 12 | -1.7 | 8 | 5684 | 0 | -8 | -12
63 | C(=NN1CCN(c2ccccn2)CC1)C1=C(N2CCOCC2)/C(=C/c2ccccc2)CC1 | . | -3.3 | 4 | . | 3 | 8 | .
64 | Cc1n[nH]c(C)c1S(=O)(=O)NCCc1ccc(Cl)cc1 | 11 | -1.6 | . | 2711 | . | 9 | -5
65 | CCOC(=O)CSc1nc(N)c(C(=O)Nc2ccc(N(C)C)cc2)s1 | 16 | 4.0 | 5 | 11138 | 1 | 1 | -13
66 | O=C(Nc1nccs1)c1ccc(-c2ccc(F)cc2)o1 | 7 | 11 | 2 | 3788 | -8 | 4 | -61
